Compound activity from PubChem BioAssay.
Six1-Eya2 inh – Six1/Eya2 interaction inhibition; 360,000 tested, 0.56% active; Q15475+O00167; activity change, % (no concentration beside the values); AlphaScreen GST-Six1/His-Eya2 binding, biochemical; hits give low values; control for the full effect not named in the record; in the data active = activity change below about -65%; inconclusive = about -30% to -65%; inactive = above about -30%; also: % is scaled to controls: 0 for no effect and ±100 for the full control effect; compound concentration not given in the record
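AlphaScreen luminescence read after one hour at 37 °C in darkness. Pin-transferred compounds met GST-Six1 and His-Eya2 protein (5X stock 250 nM/500 nM) plus glutathione donor and Ni-chelate acceptor beads (5X, 50 ug/mL).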
TRPML1 ag – human mucolipin-1 channel agonism | Q9GZU1 | TRPML1-expressing cells, Ca2+ dye fluorescence, FDSS; host cell line not named in the record; reference of the full effect not given here | activation, % (test concentration not listed) | 410,000 tested, 0.12% active; in the data active = activation above about 50%; inconclusive = about 30% to 50%; inactive = below about 30%; also: 0% is about no effect; the text of the record puts the active cut at 80%
Target sequence (Q9GZU1 whole entry, looked up): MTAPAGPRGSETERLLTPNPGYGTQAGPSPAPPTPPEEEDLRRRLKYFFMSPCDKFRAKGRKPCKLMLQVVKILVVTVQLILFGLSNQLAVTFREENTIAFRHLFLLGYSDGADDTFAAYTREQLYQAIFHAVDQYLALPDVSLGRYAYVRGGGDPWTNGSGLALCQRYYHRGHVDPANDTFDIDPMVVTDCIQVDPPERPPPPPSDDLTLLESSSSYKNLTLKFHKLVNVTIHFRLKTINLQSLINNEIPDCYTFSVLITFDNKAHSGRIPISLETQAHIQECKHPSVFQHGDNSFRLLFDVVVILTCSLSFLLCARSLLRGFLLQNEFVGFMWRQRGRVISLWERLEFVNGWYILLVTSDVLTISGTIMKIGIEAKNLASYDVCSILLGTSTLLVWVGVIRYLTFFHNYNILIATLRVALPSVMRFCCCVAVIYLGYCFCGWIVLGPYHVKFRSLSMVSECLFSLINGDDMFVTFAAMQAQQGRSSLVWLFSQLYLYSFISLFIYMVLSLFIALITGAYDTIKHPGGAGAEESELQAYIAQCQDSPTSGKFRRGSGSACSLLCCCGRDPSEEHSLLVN
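Calcium fluorescence on an FDSS kinetic reader gave the read-out. Tet-induced TRPML1-DL cells were plated overnight, dye-loaded (Ca8 with quencher, 45-90 min, room temperature, dark), then read 110 s after compound addition, and again 110 s after 4uM final 54-4 (EC80).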
CtBP-E1A inh – inhibitors of CtBP/E1A interaction | activity change, % (no concentration beside the values) | 340,000 tested, 0.49% active | AlphaScreen GST-E1A/His-CtBP binding, 1536-well; hits give low values; control for the full effect not named in the record; in the data active means activity change below about -65%; inconclusive means about -30% to -65%; inactive means above about -30%; also: % is scaled to controls: 0 for no effect and ±100 for the full control effect; compound concentration not given in the record
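Homogeneous bead-based format: GST-tagged E1A captured on glutathione donor beads, His-tagged CtBP on nickel acceptor beads; compounds precede bead addition by 2 h at 37 °C.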
TRPML1 inh – human mucolipin-1 channel inhibition; Q9GZU1; TRPML1-inducible cells, Ca2+ dye fluorescence, FDSS; hits give low values; inhibition of EC80 agonist-evoked calcium signal; AID 624415; activity change, negative = inhibition, % (no concentration beside the values); 390,000 tested, 0.02% active; in the data active means activity change below about -50%; inconclusive means about -30% to -50%; inactive means above about -30%;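 also: stimulus is agonist 54-4 at its EC80 concentration; % is scaled to controls: 0 for no effect and ±100 for the full control effect; compound concentration not given in the record; the text of the record puts the active cut at -80%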
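TRPML1-DL cells, Tet-induced overnight (~16 h, 37 °C) at 1,500 cells/well, were loaded with Ca8 no-wash dye plus quencher for 45-90 min at room temperature. Compounds were pinned during FDSS kinetic reading; agonist 54-4 at EC80 (4 uM final) then added.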
D2 potentiator – positive allosteric modulators of human D2 dopamine receptor. potentiation, % (no concentration beside the values). AID 624464. DiscoveRx D2 beta-arrestin cells, luminescence, 90 min; 100% = 57 uM dopamine signal. 360,000 tested, 0.23% active. P14416; active = potentiation of 50% or more; inconclusive = 30% to 50%; inactive = 30% or less;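 also: compound concentration not given in the record; tested on top of an EC20 dose of dopamine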
Target sequence (P14416 whole entry, looked up): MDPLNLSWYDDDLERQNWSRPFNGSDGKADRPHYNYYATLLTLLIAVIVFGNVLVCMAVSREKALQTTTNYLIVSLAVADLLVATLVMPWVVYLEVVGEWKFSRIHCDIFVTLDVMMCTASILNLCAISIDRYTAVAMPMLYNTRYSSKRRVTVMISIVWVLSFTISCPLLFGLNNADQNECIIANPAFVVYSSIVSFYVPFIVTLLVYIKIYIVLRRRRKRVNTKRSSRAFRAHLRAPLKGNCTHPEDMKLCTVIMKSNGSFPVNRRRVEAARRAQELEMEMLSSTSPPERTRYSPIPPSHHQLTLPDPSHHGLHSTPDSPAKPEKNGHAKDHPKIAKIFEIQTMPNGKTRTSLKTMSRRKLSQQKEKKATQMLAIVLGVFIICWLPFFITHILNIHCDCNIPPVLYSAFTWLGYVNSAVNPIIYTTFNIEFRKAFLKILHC
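PathHunter D2 cells, attached overnight at 37 deg C, received compound in DMSO plus dopamine at EC20 (50 nM final) for 90 min at 37 deg C. Beta-arrestin recruitment was read as luminescence after 1 h with detection reagent at ambient temperature.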
TRPV1 potentiator – human TRPV1 potentiation | TRPV1-expressing cells, Fluo-8 calcium influx, capsaicin EC20 potentiation; host cell line not named in the record; control for the full effect not named in the record | potentiation, % at 8.33 µM | 320,000 tested, 0.02% active | AID 540277; active means potentiation above 80%; inconclusive means 30% to 80%; inactive means below 30%; also: 0% is about no effect
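Cells expressing TRPV1 were dye-loaded with Fluo-8 and read kinetically: 10 s baseline, 3 min after compound (agonist portion), then 2 min after EC20 capsaicin (allosteric enhancer portion). Calcium-bound dye fluorescence at 480/520 nm.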
Numbers without * were called inactive; ? = inconclusive; / = not tested or not shown; & = joins results of further samples.

SMILES	Six1-Eya2 inh	TRPML1 ag	CtBP-E1A inh	TRPML1 inh	D2 potentiator	TRPV1 potentiator
CN(CC(=O)N1CCN(c2ccccn2)CC1)S(=O)(=O)c1ccc(Br)cc1	-4.1	-0.8	0.1	8.8	-22.5	-2.4
O=S(=O)(Nc1ccc(-c2nnc(SCc3ccc(Cl)cc3)o2)cc1)c1ccccc1	-4.2	4.0	-5.2	-1.5	4.9	7.8
Cc1cccc(C)c1-n1nnnc1-c1nc2ccccc2[nH]c1=O	?	-1.0	-15.9	/	/	/
CC(C)(C)C(=O)Oc1cc(N)n(S(=O)(=O)c2ccccc2)n1	-12.3	0.3	/	0.3	16.6	-3.8
CCN(CC(=O)NCc1cccs1)C(=O)CCC(=O)c1ccc(F)cc1	1.9	-0.5	9.7	-14.6	?	17.1
CC(C)(C)OC(=O)N[C@H](C(=O)OC(C)(C)C)c1ccc2ccccc2c1	10.7	0.6	-18.0	25.7	-0.6	-5.0
CCN1C(=O)/C(=C2\SC(=S)N(NC(=O)c3ccccc3O)C2=O)c2ccccc21	-90.0*	-0.6	-96.6*	8.8	4.1	-3.6
CC(C(=O)N(C)C)N1c2cccc3cccc(c23)S1(=O)=O (stereo not drawn)	2.1	0.0	3.8	-11.9	2.0	?
N/C(=N\OC(=O)N1c2ccccc2Sc2ccccc21)c1ccccc1	-16.1	1.1	-28.2	-8.9	4.5	11.6
Cc1ccc(S(=O)(=O)N2CCCCC2)cc1NC(=O)COC(=O)C1=COCCO1	4.2	-0.4	1.3	-14.2	-4.8	7.6
Cc1cccc(NC(=O)C(C)N2C(=O)C3C4CC(C(Br)C4Br)C3C2=O)c1 (stereo not drawn)	16.1	8.1	16.6	-8.2	-8.9	10.6
O=C(CN1C(=O)C2CC=C(Cl)CC2C1=O)N1CCOCC1 (stereo not drawn)	0.0	-1.1	5.4	-6.8	4.9	8.4
O=C1CC(Nc2ccccc2)C(=O)N1CCc1ccccc1 (stereo not drawn)	3.8	-0.6	-0.7	10.4	-40.9	-2.1
Nc1ncnc2c1ncn2C1O[C@H](CO)[C@@H](O)[C@@H]1O (stereo partly drawn)	4.0	0.5	-18.2	11.2	-8.6	7.6
Cc1cc(C)cc(NC(=O)N2c3ccccc3NC(=O)CC2C)c1 (stereo not drawn)	3.2	0.2	8.6	18.0	-4.2	-8.9
O=C(Cc1cccc2ccccc12)Nc1cc(C(=O)O)cc(C(=O)O)c1	-2.1	-0.7	/	-5.5	13.1	-0.4
O=C1NC(=Nc2ccc(O)cc2)S/C1=C/c1ccco1	-0.1	1.3	-3.3	-16.1	-2.9	5.4
O=C(CSc1ncnc2sc3c(c12)CCCC3)c1ccccc1	-2.2	-0.7	-4.2	2.7	-8.1	3.7
CCCCOc1ccc(C(=O)N2CCCC2)cc1	2.1	2.4	6.6	-7.7	-7.6	-18.1
Cc1cc(C)n2nc(C(=O)NCc3ccccc3)cc2n1	0.4	1.6	5.6	-11.8	-11.5	17.7
CC1(C)C(=O)Nc2ccccc2N1C(=O)COC(=O)COc1cccc(C(F)(F)F)c1	0.9	2.4	-4.4	-4.0	-4.7	-10.5
CC(=O)c1sc(-c2ccc(F)cc2F)nc1C	12.7	5.2	11.1	13.5	-3.1	13.6
COC(=O)C1=C(C)NC(C)=C(C(=O)OC)C1c1ccccc1OCc1c(C)no[n+]1[O-]	-1.0	0.0	1.8	11.4	-13.3	-13.8
Nc1c(C(=O)O)cnc2nc(N3CCOCC3)nn12	14.7	0.7	0.0	-8.7	-1.1	7.6
COc1cc(CC(=O)O)ccc1O	9.3	-0.7	-7.5	6.2	-14.2	25.3
O=C(CCc1nnc(C2CCCCC2)o1)N1CCN(c2ccccc2F)CC1	-13.0	0.0	0.0	48.5	-15.8	4.0
O=C(NCCOc1ccc(F)cc1)C1CCC(=O)N(CC2CCCCC2)C1 (stereo not drawn)	5.8	0.5	/	-2.2	-11.8	-13.2
CC(=O)N(C)c1ccc(NC(=O)c2ccccc2C(=O)O)cc1	0.6	-0.3	3.5	4.7	-6.6	1.1
CCOC(=O)[C@@H]1[C@H]2COc3cc(OC)ccc3[C@H]2N2C(=O)N(c3cccc(C)c3)C(=O)[C@]12C	2.8	1.3	4.4	7.3	0.7	/
Cc1cccc(C(=O)Oc2ccc(/C=N/NC(=O)c3ccccc3O)cc2)c1	-4.3	0.6	1.0	6.0	-3.9	0.3
Cn1ccc2c(-c3ccc(C(=O)O)cc3)cc3c(c21)C1CCC3C1 (stereo not drawn)	-8.2	-0.4	1.8	26.5	-2.8	/
CCOc1ccc2c(c1)c(C(C)=O)c(C)n2-c1ccccc1	-1.3	0.2	-0.3	2.9	-3.6	-13.0
CN(C)/C(=C\C(=O)c1ccccc1)C(=O)c1ccccc1	7.1	0.7	-3.7	-12.7	-10.4	/
CC(OC(=O)c1cc(Cl)ccc1[N+](=O)[O-])C(=O)NC(C)c1ccc(F)cc1 (stereo not drawn)	-4.0	1.5	-4.7	9.6	27.8	-7.8
CSc1cc(-c2ccccc2)n(Cc2ccc(Cl)cc2Cl)c(=O)c1C#N	-2.8	-0.7	4.5	-21.7	-13.6	-2.4
CN(C)CCCN1C(=O)CSC1c1ccccc1 (stereo not drawn)	2.4	-0.5	-3.5	-2.4	-11.5	-4.2
O=C(NC1CCOC1=O)OCc1ccccc1 (stereo not drawn)	24.0	-0.3	0.0	3.5	-10.6	/
CCc1ccccc1NC(=O)Nc1cccs1	-6.1	0.6	/	-0.7	-11.8	-6.6
Cc1cccc(Cc2c(C)nc3c(C(=O)N4CCN(Cc5ccc6c(c5)OCO6)CC4)cnn3c2C)c1	-14.4	1.4	-0.8	-5.3	-7.4	-37.4
CC(C)Cc1nnc(NC(=O)CCC(=O)Nc2ccc(F)cc2)s1	0.6	-0.2	-0.2	-5.1	-10.2	-6.3
CN(C)C(=O)COC(=O)c1ccccc1Nc1ccc(SC(F)F)cc1	11.9	0.0	/	8.5	-4.8	0.7
COC(=O)C(Cc1ccccc1)NC(=S)NC(=O)c1ccccc1 (stereo not drawn)	-17.3	-0.2	3.5	-11.9	-35.0	-5.5
NS(=O)(=O)c1ccc(CCNC(=O)/C=C/c2ccccc2[N+](=O)[O-])cc1	14.8	1.0	/	-17.0	9.4	10.6
Clc1ccc(-c2nnc3ccccn23)cc1	-0.1	0.1	15.7	-11.1	-34.7	-0.9
Cc1cc(Br)ccc1NC(=O)C1CSC2(C)CCC(=O)N12 (stereo not drawn)	-2.4	0.0	4.5	4.9	16.7	-0.8
CC1CCN(C(=O)COC(=O)c2ccc3c(c2)OCCO3)CC1	2.0	0.6	10.8	27.4	0.4	/
CC[n+]1oc(-c2ccccc2)cc1C	6.3	-0.2	6.9	-10.9	-4.4	-53.5
Cc1cc(C)n2nc(SCC(=O)NC3(C#N)CCCCC3)nc2n1	-8.6	-0.6	6.0	24.3	-7.5	/
Cc1ccccc1OCCOC(=O)c1c(-c2ccccc2)noc1C	51.4	2.8	36.9	34.3	-1.5	-2.9
OCCC1CN(Cc2cc3ccccc3o2)CCN1Cc1ccc(F)cc1 (stereo not drawn)	-1.7	0.1	7.3	-6.2	-3.7	-1.0
Cc1nnc(SCc2ccccc2)n(N)c1=O	8.8	-0.2	4.2	-6.6	-8.7	17.1
Cc1ccc(NS(=O)(=O)c2cc(C(=O)N(C)C)ccc2C)cc1C	5.8	0.0	-0.7	-13.9	-6.5	8.7
Cn1c(N)c(C(=O)COC(=O)c2ccc(C(F)(F)F)cc2)c(=O)n(C)c1=O	-9.9	-0.3	-2.1	2.7	10.0	/
CC1CCCN(C(c2cccs2)c2nnnn2Cc2ccccc2)C1 (stereo not drawn)	4.8	3.6	2.6	-7.2	-13.5	3.2
O=C(c1ccc2c(c1)C(=O)N(Cc1ccco1)C2=O)N1CCOCC1	1.7	1.1	10.5	-15.1	-5.4	-12.6
O=C(Cn1cc(SCc2ccc(Cl)cc2)c2ccccc21)N1CCOCC1	-6.8	1.1&0.4	-0.4	8.8&15.4	-16.8	-12.4
C=CCNC(=O)Cn1c(=O)c2c(ncn2CCC(C)C)n(Cc2ccccc2)c1=O	4.3	-1.2	-14.4	1.0	0.6	-6.6
O=C(Nc1ccc(Cl)c(S(=O)(=O)N2CCOCC2)c1)c1cn2ccccc2n1	-4.3	1.6	3.2	18.5	1.0	-22.3
Nc1nc(SCC(=O)Nc2ccc(Br)cc2Br)n[nH]1	6.0	0.8	2.8	11.0	5.9	/
O=C(CCc1ccccc1)Nc1ncn[nH]1	-15.0	-0.5	-7.1	50.0	1.9	2.5
The list goes on.
SMILES	Six1-Eya2 inh	TRPML1 ag	CtBP-E1A inh	TRPML1 inh	D2 potentiator	TRPV1 potentiator
Cc1cc(N2C(=O)C(O)=C(C(=O)c3ccc(C)o3)C2c2cccc(Cl)c2)no1 (stereo not drawn)	0.7	3.0	0.0	-4.5	-14.0	/
CCN(CC)CCn1c2c(c(SCC(=O)Nc3nc4ccccc4s3)nc1=O)CCCC2	-1.1	-0.1	-0.8	4.8	-14.3	-0.8
Cc1ccc2nc(NC(=O)CCNS(=O)(=O)c3ccc(Br)s3)sc2c1	-0.8	0.6	-0.1	-5.0	-3.9	2.5
CCOc1ccc(NC(=O)CN(C)C(=O)C2CCCO2)cc1OCC (stereo not drawn)	-5.9	-1.0	-3.7	-4.5	-15.9	-4.8
NCC[C@H](O)C(=O)N[C@@H]1C[C@H](N)[C@@H](O[C@H]2O[C@H](CN)[C@@H](O)[C@H](O)[C@H]2O)[C@H](O)[C@H]1O[C@H]1O[C@H](CO)[C@@H](O)[C@H](N)[C@H]1O	9.5	-0.1	-3.1	10.2	-3.1	27.6
Cc1ccc(Cl)cc1N1CCN(CC(O)COCc2ccco2)CC1 (stereo not drawn)	-8.4	1.9	-1.8	13.1	-35.1	-5.3
COc1ccc(OC)c(S(=O)(=O)Nc2ccccc2C(=O)O)c1	-1.7	-0.3	0.8	-17.0	-1.3	-3.2
CC(N=Cc1cccc(O)c1O)c1ccccc1 (stereo not drawn)	-18.8	1.6	3.2	8.7	?	1.9
CC1(C)Cc2cccc(OCC(=O)N3CCN(c4ccc(F)cc4)CC3)c2O1	-7.7	1.7	7.2	-12.4	-17.7	-7.2

Shown as labelled records: entries from further up
> Cc1ccc2nc(NC(=O)CCNS(=O)(=O)c3ccc(Br)s3)sc2c1
  Six1-Eya2 inh = -0.8
  TRPML1 ag = 0.6
  CtBP-E1A inh = -0.1
  TRPML1 inh = -5.0
  D2 potentiator = -3.9
  TRPV1 potentiator = 2.5

> CCOc1ccc(NC(=O)CN(C)C(=O)C2CCCO2)cc1OCC (stereo not drawn)
  Six1-Eya2 inh = -5.9
  TRPML1 ag = -1.0
  CtBP-E1A inh = -3.7
  TRPML1 inh = -4.5
  D2 potentiator = -15.9
  TRPV1 potentiator = -4.8

> NCC[C@H](O)C(=O)N[C@@H]1C[C@H](N)[C@@H](O[C@H]2O[C@H](CN)[C@@H](O)[C@H](O)[C@H]2O)[C@H](O)[C@H]1O[C@H]1O[C@H](CO)[C@@H](O)[C@H](N)[C@H]1O
  Six1-Eya2 inh = 9.5
  TRPML1 ag = -0.1
  CtBP-E1A inh = -3.1
  TRPML1 inh = 10.2
  D2 potentiator = -3.1
  TRPV1 potentiator = 27.6

> Cc1ccc(Cl)cc1N1CCN(CC(O)COCc2ccco2)CC1 (stereo not drawn)
  Six1-Eya2 inh = -8.4
  TRPML1 ag = 1.9
  CtBP-E1A inh = -1.8
  TRPML1 inh = 13.1
  D2 potentiator = -35.1
  TRPV1 potentiator = -5.3
